D2 PAM – Beta-Arrestin HTS for Positive Allosteric Modulators of the Human D2 Dopamine Receptor: Potentiators. hit rate 0.23% among 360,000. D(2) dopamine receptor (Homo sapiens), P14416. potentiation, % (concentration not given with the values). DiscoveRx D2 beta-arrestin cells, luminescence, 90 min; 100% = 57 uM dopamine signal; active = potentiation of 50% or more; inconclusive = 30% to 50%; inactive = 30% or less;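 note: compound concentration not given in the record; tested on top of an EC20 dose of dopamine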
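PathHunter D2 cells, attached overnight at 37 deg C, received compound in DMSO plus dopamine at EC20 (50 nM final) for 90 min at 37 deg C. Beta-arrestin recruitment was read as luminescence after 1 h with detection reagent at ambient temperature.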
TRPML1 ag – qHTS for Agonists of the Human Mucolipin Transient Receptor Potential 1 (TRPML1); TRPML1-expressing cells, Ca2+ dye fluorescence, FDSS; host cell line not named in the record; reference of the full effect not given here; activation, % (test concentration not listed); hit rate 0.12% among 410,000; AID 624414, 2012; in the data active = activation above about 50%; inconclusive = about 30% to 50%; inactive = below about 30%; note: 0% is about no effect; the text of the record puts the active cut at 80%
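TRPML1-DL cells, Tet-induced overnight (~16 h, 37 degrees C), loaded 45-90 min at room temperature with Ca8 no-wash calcium dye plus quencher. FDSS fluorescence: 10 s baseline, compound pin-transfer, 110 s agonist read, then EC80 54-4 (4uM final) and 110 s antagonist read.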
PINK1 modulator – A Quantitative High throughput Screen to Identify Chemical Modulators of PINK1 Expression | PINK1 immunofluorescence, high-content cytometry, 24 h | hit rate 0.2% among 410,000 | Potency, µM (top dose mostly 76.6 µM), for inactives: at the highest dose activation (PINK1 increase), actives largely listed as activators | AID 624263, 2012; active = well fitted activation curve with a large enough effect; inconclusive = small, poorly fitted or top-dose-only effect; inactive = flat fitted curve, though single readings scatter; cell line not stated here;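 note: potency is the fitted concentration of half-maximal effect; % of control where 0% means no effect; nearly all actives have a fitted effect of over 65% in size; a mitochondrial uncoupler was the plate control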
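A stable cell line was treated with compounds at 5 concentrations for 24 hours, with CCCP as control. PINK1 levels and mitochondrial localization were measured by immunofluorescence with mitochondrial, cell and nuclear markers after fixation, read by laser-scanning cytometry.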
Six1-Eya2 blk – qHTS Assay for Inhibitors of the Six1/Eya2 Interaction; AID 651725, 2012; AlphaScreen GST-Six1/His-Eya2 binding, biochemical; hits give low values; control for the full effect not named in the record; hit rate 0.56% among 360,000; activity change, % (no concentration beside the values); Homeobox protein SIX1 (Homo sapiens) + Protein phosphatase EYA2 (Homo sapiens), …; in the data active = activity change below about -65%; inconclusive = about -30% to -65%; inactive = above about -30%; note: % is set by controls: 0 for no effect and ±100 for the full control effect; compound concentration not given in the record
Target sequence (O00167 whole entry, looked up): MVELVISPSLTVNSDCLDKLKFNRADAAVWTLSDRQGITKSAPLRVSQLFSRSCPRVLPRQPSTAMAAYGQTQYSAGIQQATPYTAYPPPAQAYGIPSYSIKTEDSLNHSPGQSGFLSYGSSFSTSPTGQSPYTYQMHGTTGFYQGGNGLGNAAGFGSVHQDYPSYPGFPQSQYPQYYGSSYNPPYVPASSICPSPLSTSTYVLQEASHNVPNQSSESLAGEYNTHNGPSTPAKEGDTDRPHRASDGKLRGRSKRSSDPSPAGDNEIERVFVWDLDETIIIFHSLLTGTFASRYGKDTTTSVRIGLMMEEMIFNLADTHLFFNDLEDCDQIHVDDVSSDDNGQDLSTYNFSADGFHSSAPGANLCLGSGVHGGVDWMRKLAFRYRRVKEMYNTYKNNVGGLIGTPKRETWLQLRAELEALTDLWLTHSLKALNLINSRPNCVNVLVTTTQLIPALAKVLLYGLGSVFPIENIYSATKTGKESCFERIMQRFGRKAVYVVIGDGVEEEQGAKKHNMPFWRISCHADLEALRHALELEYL
Target sequence (Q15475 whole entry, looked up): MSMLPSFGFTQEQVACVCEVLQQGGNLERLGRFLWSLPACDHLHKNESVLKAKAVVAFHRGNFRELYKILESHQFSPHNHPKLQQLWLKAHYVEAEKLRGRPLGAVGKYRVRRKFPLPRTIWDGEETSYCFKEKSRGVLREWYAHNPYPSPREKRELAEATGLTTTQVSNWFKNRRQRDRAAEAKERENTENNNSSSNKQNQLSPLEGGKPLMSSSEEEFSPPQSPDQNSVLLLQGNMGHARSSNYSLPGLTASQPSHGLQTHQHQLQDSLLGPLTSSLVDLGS
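Six1/Eya2 binding was read as AlphaScreen signal after compounds were pinned into GST-Six1 plus His-tagged Eya2 (5X stock 250/500 nM) in pH 8.0 Tris/NaCl/TCEP buffer, beads added, then incubated 1 h, 37 C, dark.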
CtBP-E1A blk – qHTS Assay for Inhibitors of the CtBP/E1A Interaction; hit rate 0.49% among 340,000; CtBP / adenovirus E1A interaction (AlphaScreen); activity change, % (concentration not given with the values); AID 651724, 2012; AlphaScreen GST-E1A/His-CtBP binding, 1536-well; hits give low values; control for the full effect not named in the record; in the data active means activity change below about -65%; inconclusive means about -30% to -65%; inactive means above about -30%; note: % is set by controls: 0 for no effect and ±100 for the full control effect
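GST-E1A and His-tagged CtBP (125 nM each as 5X stock) were preincubated with pin-transferred compound for 2 h at 37 °C in the dark, then glutathione donor and nickel acceptor beads were added for 1 h before AlphaScreen reading.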
D2 agonist – Beta-Arrestin HTS for Positive Allosteric Modulators of the Human D2 Dopamine Receptor: Agonists. hit rate 0.084% among 360,000. DiscoveRx PathHunter D2 beta-arrestin, luminescence, 90 min; 100% = 57 uM dopamine signal. activation, % (no concentration beside the values); in the data active = activation above about 40%; inconclusive = about 15% to 40%; inactive = below about 15%; note: compound concentration not given in the record; the text of the record calls up to 30% inactive
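DiscoveRx PathHunter D2 beta-arrestin cells (2,100/well) attached overnight, then compound-stimulated 90 min at 37 C in HBSS/10 mM HEPES/0.1% Tween-20 buffer; beta-galactosidase complementation read by luminescence after 1 h at ambient temperature. Dopamine 57 uM final (EC100) as control.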
* marks the source's active call; other numbers are inactive results; ? = inconclusive; / = not tested or not shown; [ ] = another dose, or the depositor's remark.

Compound	Six1-Eya2 blk	TRPML1 ag	CtBP-E1A blk	D2 agonist	D2 PAM	PINK1 modulator
Cc1cnc(NC(=O)Cc2c[nH]c3ccccc23)s1	-9	-0.6	-7	-0.8	-11	1.1%[38.3 µM]
CCN(C(=O)COC(=O)c1ccccc1SCC(=O)NC1CCCCCCC1)C1CCS(=O)(=O)C1 (stereo not given)	4	0.0	0	-1.1	2	-0.2%
C=CCn1c(SCc2cc(C(C)=O)ccc2OCC)nc2ccccc2c1=O	8	-0.1	8	-0.2	-7	?
COc1cccc(C(=O)OCC(=O)N2CCc3ccccc32)c1OC	4	2.2	2	-2.3	3	-0.3%
O=C(NCCN1CCCC1)c1ccc2c(c1)N(Cc1ccccc1)C(=O)c1ccccc1S2(=O)=O	-3	0.0	-3	6.7	-18	0.1%
CCCCNC(=O)COC(=O)c1ccc(NC(C)=O)cc1	6	0.0	4	-3.5	-6	5.2%
COc1ccc(Nc2ncnc3c2cnn3Cc2ccccc2)cc1	-3	1.5	3	4.0	-1	-6.5%[38.3 µM]
C=CCNC(=O)/C(=C\c1cccc([N+](=O)[O-])c1)NC(=O)c1ccccc1	14	0.1	11	0.5	-3	1.3%
CCOC(=O)c1sc(=NC(=O)COc2ccccc2)n(C)c1C	-4	-0.8	-2	0.8	-7	0.7%
Cc1ccc(NC(=O)C(C)SCc2nc3sc4c(c3c(=O)[nH]2)CCCC4)nc1 (stereo not given)	1	-0.2	6	-4.1	3	-0.1%
CCN(CC)c1ccc(/C=N/N2CCN(c3ccccc3OC)CC2)cc1	-67*	0.2	-21	-3.2	-14	0.7%
COc1ccc(C(=O)OCC(=O)NCC2CCCCC2)c(OC)c1	0	-0.6	6	-0.1	-69	-1.3%

The last 2 compounds of the part above are carried over, then new ones follow:
Compound	Six1-Eya2 blk	TRPML1 ag	CtBP-E1A blk	D2 agonist	D2 PAM	PINK1 modulator
CCN(CC)c1ccc(/C=N/N2CCN(c3ccccc3OC)CC2)cc1	-67*	0.2	-21	-3.2	-14	0.7%
COc1ccc(C(=O)OCC(=O)NCC2CCCCC2)c(OC)c1	0	-0.6	6	-0.1	-69	-1.3%
O=C1NCCOC(=O)[C@@H](Cc2ccc(F)cc2)CC/C=C/C[C@@H]1CC(=O)N(CCO)Cc1ccccc1	4	2.0	5	0.6	-1	-0.4%
Fc1cccc(NC(=S)NCc2ccccn2)c1	-10	1.7	0	-0.7	-4	2.5%
Cn1c(SCc2cccc(Br)c2)nnc1-c1ccncc1	5	-0.4	/	5.7	-2	0.3%
CN(C(=O)CSc1nc2ccccc2s1)c1c(N)n(Cc2ccccc2)c(=O)[nH]c1=O	7	1.0	0	-2.3	2	0.5%
CN(c1ccccc1)S(=O)(=O)c1ccc(C(=O)NCC2CCCO2)cc1 (stereo not given)	8	-0.2	-2	0.4	7	-2.9%
CCOC(=O)c1sc2nc(C)nc(Nc3ccccc3)c2c1C	4	1.2	9	1.3	-9	1.6%
COc1cc(/C=C2/N=C(c3ccccc3F)OC2=O)cc(Cl)c1OS(C)(=O)=O	1	1.5	-2	0.0	-7	5.6%[38.3 µM]
COc1ccc(/C=C(/NC(=O)c2ccc(Br)o2)C(=O)Nc2cccc(C(=O)O)c2)cc1	19	-0.1	-2	-1.6	-15	2.9%
CC(C)N1CCC2(CC1)Oc1ccc(Br)cc1C1CC(c3cccnc3)=NN12 (stereo not given)	-10	0.3	-15	-4.6	-19	3.4%
CC1CCCC(NC(=O)CN2C(=O)NC(c3ccccc3)(c3ccccc3)C2=O)C1C (stereo not given)	-1	1.5	-2	-1.9	-3	-0.3%
Cc1c(Cl)cccc1NC(=O)NCc1ccc(F)cc1	5	0.3	/	-7.4	-11	5.0%
CCCn1c2ccccc2c2cnn(CC(=O)NC3CCN(Cc4ccccc4)CC3)c(=O)c21	-2	-0.4	5	-3.8	-27	-1.2%
O=C(CC(=O)c1ccccn1)c1ccccc1	?	4.3	?	0.4	-29	-0.6%
c1ccc2c(c1)[nH]c1nc3nncn3nc12	-23	1.2	?	-3.7	-12	0.7%[38.3 µM]
O=C(Nc1ccc(N2CCOCC2)c(Cl)c1)c1cccnc1	-5	4.9	-5	-1.1	-3	-1.3%
COc1ccc(N2CCN(C(CNC(=O)C(=O)NCc3cccnc3)c3ccco3)CC2)cc1 (stereo not given)	-1	/	5	-4.8	-11	-0.2%
COc1ccccc1Nc1nc2cc(C)ccc2cc1C#N	8	-0.2	7	4.1	-7	8.2%
COc1ccccc1N(CC(=O)NCc1ccco1)S(C)(=O)=O	-1	0.0	4	-3.2	-4	0.6%
COc1cccc(N2CCN(CC(=O)NCc3cccs3)CC2)c1	2	-1.3	0	0.9	-7	-1.2%
Cc1nc(SCC(=O)N2CCNC2=O)c2ccccc2n1	-7	-0.2	0	4.3	-9	1.1%
COc1cc(C(C2C(=O)CC(C)(C)CC2=O)C2C(=O)CC(C)(C)CC2=O)ccc1O	8	/	5	4.0	5	-0.7%
CCS(=O)(=O)Nc1ccc(C(=O)CC2(O)C(=O)Nc3ccc(Br)cc32)cc1 (stereo not given)	1	-0.4	0	-3.8	-17	3.5%
C/C(=N\NC(=O)CSc1nc(C)cc(C)n1)c1cccs1	-8	0.1	-8	5.9	-8	2.9%
O=C(COC(=O)C1CC(O)CN1S(=O)(=O)c1ccc(Cl)cc1)c1ccccc1 (stereo not given)	3	-0.8	13	1.2	-16	-1.0%
Cc1ccc(-c2csc3ncnc(N4CCc5ccccc5C4)c23)cc1	5	0.6	5	-1.0	6	?
O=C(CSc1nc2c(sc3ccccc32)c(=O)n1Cc1ccco1)NCC1CCCO1 (stereo not given)	1	-0.4	3	-0.4	0	2.0%
O=C(NCCN1CCCCCC1)c1ccc(CS(=O)(=O)c2ccc(Br)cc2)o1	-7	0.2	-3	-4.5	-7	0.6%
CC1CC(=O)c2cn3c(nc2C1)nc1ccccc13 (stereo not given)	-8	1.6	0	1.5	5	?
Cc1cccc(NC(=S)NCC(c2cccnc2)N2CCOCC2)c1C (stereo not given)	8	0.2	2	-3.5	-10	0.3%
c1ccc(COc2cccc(CNCc3cccnc3)c2)cc1	-2	0.3	-14	-1.9	-25	-1.3%
COc1ccccc1[C@@H]1C(c2ccc(F)cc2)=NN(c2ccccc2)[C@H]1C(=O)N1CCOC1=O	21	0.5	25	4.8	-1	0.3%
O=C(NC1CCCCC1)C1CCCN(S(=O)(=O)c2cccc3cccnc23)C1 (stereo not given)	8	-0.2	2	-1.6	-14	0.8%
CC(=O)OC1CC(c2cc(C(C)(C)C)c(O)c(C(C)(C)C)c2)=NO1 (stereo not given)	2	/	1	-3.0	-9	10%
COc1ccc(CNC(=O)CSc2nc3ccc(C)cc3[nH]2)cc1OC	18	0.1	-5	-1.8	-9	-0.5%
CCOC(=O)c1c(NC(=O)C2CCCCC2)sc2c1CCN(CC)C2	-10	-0.1	1	-1.1	-10	14%
COc1ccc(CN(C)C[C@H]2OCCCC[C@@H](C)Oc3ccc(NS(C)(=O)=O)cc3C(=O)N([C@H](C)CO)C[C@@H]2C)cc1	-8	-0.6	2	0.3	4	0.1%
COC(=O)c1c(NC(=O)COC(=O)c2ccc(Cl)cc2[N+](=O)[O-])sc2c1CCCCC2	-10	0.4	0	0.4	-8	6.3%
Cn1nnnc1Sc1ccc(C(=O)O)cc1[N+](=O)[O-]	10	-1.1	6	2.1	2	-0.7%
COc1ccccc1C(=O)NC(=O)COC(=O)c1ccc(Cl)cc1[N+](=O)[O-]	1	-0.9	-8	-5.8	22	11%
COc1cc(OC)c(C2SCCN2S(=O)(=O)c2ccc(F)cc2)cc1OC (stereo not given)	-1	0.0	-1	-5.3	-28	4.5%
O=C(NCc1ccco1)c1sc(=S)n2c1[nH]c(=O)c1ccccc12	-21	20	-30	-4.2	-8	?
Cc1ccc(S(=O)(=O)N2CCOCC2)cc1C(=O)OCC(=O)Nc1ccc2c(c1)OCO2	-10	-0.5	-3	-4.2	-1	-2.7%
CC(C)CC(=O)Nc1ccc(S(=O)(=O)NCc2ccco2)cc1	-3	-1.1	5	-1.7	-1	-0.4%

Grouped by structure: the entries above with four or more nitrogen atoms
Compound	Six1-Eya2 blk	TRPML1 ag	CtBP-E1A blk	D2 agonist	D2 PAM	PINK1 modulator
COc1ccc(Nc2ncnc3c2cnn3Cc2ccccc2)cc1	-3	1.5	3	4.0	-1	-6.5%[38.3 µM]
Cc1ccc(NC(=O)C(C)SCc2nc3sc4c(c3c(=O)[nH]2)CCCC4)nc1 (stereo not given)	1	-0.2	6	-4.1	3	-0.1%
CCN(CC)c1ccc(/C=N/N2CCN(c3ccccc3OC)CC2)cc1	-67*	0.2	-21	-3.2	-14	0.7%
Cn1c(SCc2cccc(Br)c2)nnc1-c1ccncc1	5	-0.4	/	5.7	-2	0.3%
CN(C(=O)CSc1nc2ccccc2s1)c1c(N)n(Cc2ccccc2)c(=O)[nH]c1=O	7	1.0	0	-2.3	2	0.5%
CC(C)N1CCC2(CC1)Oc1ccc(Br)cc1C1CC(c3cccnc3)=NN12 (stereo not given)	-10	0.3	-15	-4.6	-19	3.4%
CCCn1c2ccccc2c2cnn(CC(=O)NC3CCN(Cc4ccccc4)CC3)c(=O)c21	-2	-0.4	5	-3.8	-27	-1.2%
c1ccc2c(c1)[nH]c1nc3nncn3nc12	-23	1.2	?	-3.7	-12	0.7%[38.3 µM]
COc1ccc(N2CCN(C(CNC(=O)C(=O)NCc3cccnc3)c3ccco3)CC2)cc1 (stereo not given)	-1	/	5	-4.8	-11	-0.2%
Cc1nc(SCC(=O)N2CCNC2=O)c2ccccc2n1	-7	-0.2	0	4.3	-9	1.1%
C/C(=N\NC(=O)CSc1nc(C)cc(C)n1)c1cccs1	-8	0.1	-8	5.9	-8	2.9%
Cc1cccc(NC(=S)NCC(c2cccnc2)N2CCOCC2)c1C (stereo not given)	8	0.2	2	-3.5	-10	0.3%
Cn1nnnc1Sc1ccc(C(=O)O)cc1[N+](=O)[O-]	10	-1.1	6	2.1	2	-0.7%

Bioassay records: PubChem, National Center for Advancing Translational Sciences (NCATS)
